Source: PubChem BioAssay
Ecoli rRNA inh: inhibitors of bacterial rRNA selective over humanized ribosomes; E. coli WT GFP vs humanized-ribosome RFP mutants, fluorescence, 24 h; hits give low values; DMSO median 0, no signal -100; GFP signal change (wild-type ribosome), % (concentration not given with the values); 1.6% of 350,000 active;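 active means significant combined selectivity score with lowered wild-type GFP, culture density cut under 30%, mutant RFP and density less affected; inactive means any of these conditions unmet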; further: one replicate is shown; some compounds called inactive have numbers as strong as hits
FGF22 binding: shifts melting point of recombinant human FGF22 | Q9HCT0 | recombinant FGF22 thermal shift, SYPRO orange fluorescence; percent of sucrose octasulfate shift, DMSO zero | calls only at 9.99 µM | 1.5% of 340,000 active | AID 651658;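 active means melting point raised past a set limit in the mean and every replicate; three in four hits are not shown here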
Target sequence (Q9HCT0 whole entry, looked up): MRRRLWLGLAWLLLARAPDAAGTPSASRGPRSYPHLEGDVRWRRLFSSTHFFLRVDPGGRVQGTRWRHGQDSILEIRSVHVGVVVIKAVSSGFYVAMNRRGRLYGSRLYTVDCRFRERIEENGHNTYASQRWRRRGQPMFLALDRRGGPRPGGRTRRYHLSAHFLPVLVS
MLL AF4-AF9 inh: inhibitors of human MLL-AF4/AF9 interaction; AlphaScreen, biotin-AF4 peptide binding to FLAG-AF9; inhibition, % at 10 µM; 0.47% of 350,000 active;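 active means every replicate reaching a set inhibition limit, whatever the replicate mean, cut at about 25% in these data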;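 further: 0% = plate neutral control median and 100% = total signal loss; the record names both 10 and 1 µM as test concentration; the first replicate is given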
Target sequence (P42568 whole entry, looked up): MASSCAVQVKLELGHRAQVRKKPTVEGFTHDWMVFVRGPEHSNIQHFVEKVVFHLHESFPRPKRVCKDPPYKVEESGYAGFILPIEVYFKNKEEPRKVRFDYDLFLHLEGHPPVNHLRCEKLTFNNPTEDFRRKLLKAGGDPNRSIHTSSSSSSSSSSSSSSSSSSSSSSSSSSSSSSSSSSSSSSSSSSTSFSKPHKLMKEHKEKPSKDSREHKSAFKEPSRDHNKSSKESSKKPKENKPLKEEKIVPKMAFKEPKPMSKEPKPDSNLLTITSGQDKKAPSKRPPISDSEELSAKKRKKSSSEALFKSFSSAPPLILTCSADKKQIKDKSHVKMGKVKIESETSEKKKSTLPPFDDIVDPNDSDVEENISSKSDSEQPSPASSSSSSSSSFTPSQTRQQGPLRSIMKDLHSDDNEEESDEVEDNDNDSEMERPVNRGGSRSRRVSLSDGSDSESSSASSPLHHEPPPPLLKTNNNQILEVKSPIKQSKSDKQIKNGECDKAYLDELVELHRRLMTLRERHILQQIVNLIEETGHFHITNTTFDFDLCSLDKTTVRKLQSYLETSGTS
Ecoli rRNA inh OD600: further read-out of Ecoli rRNA inh, marked with its call; OD600 change, %; measured here: OD600 growth;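 optical density of the mix in the first replicate; 0 = DMSO median and -100 = no signal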
Ecoli rRNA inh RFP: further read-out of Ecoli rRNA inh, marked with its call; RFP signal change, %; measured here: RFP humanized mutant strains;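 first replicate; 0 = DMSO median and -100 = no signal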
An asterisk follows results filed as active; i = inactive; + = active, no number. Some of the compounds tested; rates above refer to the full screens.

SMILES	Ecoli rRNA inh	Ecoli rRNA inh OD600	Ecoli rRNA inh RFP	FGF22 binding	MLL AF4-AF9 inh
CN1C(=O)c2cc(NC(=O)Nc3ccc(Cl)cc3)ccc2OC[C@@H]2O[C@@H](CC(=O)NCCN3CCCCC3)CC[C@@H]21	4	2	2.3	i	12
CCC(=O)N1[C@@H]2c3ccc(/C=C/c4ccccc4)c(=O)n3C[C@@H]2[C@@H](CO)[C@@H]1C(=O)OC	-3	-2	-2.9	i	-4.3
COc1cccc(C#Cc2ccc([C@H]3[C@H](CO)N4C(=O)CN(C(=O)c5ccccc5)C[C@@H]34)cc2)c1	1	-32	20	i	-0.6
OC[C@@H]1[C@H](c2ccc(C#Cc3ccccc3)cc2)[C@H]2CN(CC3CCOCC3)CCCCN12	3	-18	13	i	13
C[C@@H]1CN([C@H](C)CO)C(=O)c2cc(NC(=O)Nc3ccc(F)cc3)ccc2O[C@@H](C)CCCCO[C@@H]1CN(C)C(=O)c1ccccc1	-6	-13	-1.2	+	-8.7
O=C(NCC[C@@H]1CC[C@H](NC(=O)C2CCC2)[C@@H](CO)O1)Nc1ccc(Cl)cc1	-5	-6	-0.7	i	1.8
CCNC(=O)C[C@@H]1CC[C@H]2[C@@H](COc3ccc(NC(=O)C4CCCCC4)cc3C(=O)N2C)O1	2	5	0.8	i	-1.2
N#CCCN(CCCN1CCOCC1)CN1C(=O)c2ccccc2C1=O	6	7	-0.2	i	0.3
CC(=O)N1[C@@H]2c3ccc(C4=CCCCC4)c(=O)n3C[C@H]1[C@H](CO)[C@H]2C(=O)NCc1cc(F)cc(F)c1	-8	-15	2.1	i	0.4
CO[C@@H]1CN(C)C(=O)c2ccc(NC(=O)c3ccccc3)cc2OC[C@H](C)N(CC2CC2)C[C@@H]1C	0	2	-1.6	i	-2.5
C[C@@H]1CN([C@H](C)CO)C(=O)c2cc(-c3ccccc3F)cnc2O[C@@H]1CN(C)C(=O)C1CCC1	5	15	-2.0	i	-3.2
COc1ccc(C[C@@H]2CCc3cnnn3COC[C@H](CC(C)C)NC2=O)cc1	-1	20	-2.4	i	7.6
C/C=C/c1cnc2c(c1)C(=O)N([C@@H](C)CO)C[C@H](C)[C@@H](CN(C)C(=O)NCCC)O2	10	12	-2.5	i	0.0
COc1ccc(NC(=O)N2C[C@@H]3[C@H](c4ccccc42)[C@@H](CO)N3C(=O)C2CCCC2)cc1	1	-2	-0.5	i	-1.3
C[C@H](CO)N1C[C@H](C)[C@@H](CN(C)CC2CCOCC2)Oc2cc(-c3cccnc3)ccc2S1(=O)=O	0	-8	-2.6	i	0.1
O=C(NC1CC1)c1ccc2nc([C@H]3C[C@H](O)[C@@H](CO)O3)[nH]c2c1	8	2	1.7	i	0.1
C[C@@H]1CCCCO[C@@H](CN(C)S(=O)(=O)c2ccccc2)[C@H](C)CN([C@@H](C)CO)C(=O)c2cc(NC(=O)Nc3ccc(F)cc3)ccc2O1	-3	-8	-2.1	i	1.2
CNC(=O)C[C@@H]1CC[C@@H]2[C@@H](COc3ccc(NC(=O)Nc4ccccc4)cc3C(=O)N2C)O1	2	9	2.3	i	-1.5
COCC(=O)N(C)C[C@@H]1Oc2ncc(C3=CCCCC3)cc2C(=O)N([C@@H](C)CO)C[C@@H]1C	7	9	-3.4	i	-6.2
C[C@H](CO)N1C[C@H](C)[C@@H](CN(C)C(=O)Cc2ccccn2)Oc2cc(C#Cc3ccccc3)ccc2S1(=O)=O	-12	-23	15	i	2.4
O=C(C[C@@H]1C=C[C@@H](NC(=O)C2CCC2)[C@H](CO)O1)NCc1ccncc1	-2	-7	1.8	i	-1.5
CO[C@@H]1CN(C)C(=O)c2ccc(NC(=O)Nc3ccccc3F)cc2OC[C@H](C)N(C(C)=O)C[C@H]1C	-2	-1	-0.5	i	0.8
CCC(=O)Nc1ccc2c(c1)OC[C@H](C)N(C(C)=O)C[C@H](C)[C@H](OC)CN(C)C2=O	-1	8	-0.2	i	-0.3
O=c1c(-c2cccs2)nc2ccccc2n1C(CCc1ccccc1)c1nc2ccccc2[nH]1 (centres undefined)	26	22	6.0	i	1.9
O=S(=O)(c1ccccc1)N1CCCCN2[C@@H](CO)[C@@H](c3ccc(-c4ccccc4F)cc3)[C@@H]2C1	-56	-78	-5.7	i	1.0

Continued, starting with the last 6 of the part before.
SMILES	Ecoli rRNA inh	Ecoli rRNA inh OD600	Ecoli rRNA inh RFP	FGF22 binding	MLL AF4-AF9 inh
C[C@H](CO)N1C[C@H](C)[C@@H](CN(C)C(=O)Cc2ccccn2)Oc2cc(C#Cc3ccccc3)ccc2S1(=O)=O	-12	-23	15	i	2.4
O=C(C[C@@H]1C=C[C@@H](NC(=O)C2CCC2)[C@H](CO)O1)NCc1ccncc1	-2	-7	1.8	i	-1.5
CO[C@@H]1CN(C)C(=O)c2ccc(NC(=O)Nc3ccccc3F)cc2OC[C@H](C)N(C(C)=O)C[C@H]1C	-2	-1	-0.5	i	0.8
CCC(=O)Nc1ccc2c(c1)OC[C@H](C)N(C(C)=O)C[C@H](C)[C@H](OC)CN(C)C2=O	-1	8	-0.2	i	-0.3
O=c1c(-c2cccs2)nc2ccccc2n1C(CCc1ccccc1)c1nc2ccccc2[nH]1 (centres undefined)	26	22	6.0	i	1.9
O=S(=O)(c1ccccc1)N1CCCCN2[C@@H](CO)[C@@H](c3ccc(-c4ccccc4F)cc3)[C@@H]2C1	-56	-78	-5.7	i	1.0
O=C(c1cnccn1)N1CC[C@@H]2[C@H](CO)Nc3ccc(-c4cccc(F)c4)cc3[C@@H]21	1	3	4.9	i	3.9
COCC(=O)N1CC(=O)N2[C@@H](CO)[C@H](c3ccc(Br)cc3)[C@@H]2C1	3	13	-2.5	i	-0.5
CCc1cc(C(=O)NC2CCCc3c2cnn3-c2ccc(F)cc2F)no1 (centres undefined)	2	-1	0.8	i	-0.3
C[C@H]1CN([C@@H](C)CO)C(=O)c2cc(NC(=O)Cc3ccccc3)ccc2O[C@@H]1CN(C)Cc1ccc(Oc2ccccc2)cc1	0	-13	35	i	5.7
CCCNC(=O)C[C@H]1C[C@@H]2c3cc(NS(=O)(=O)c4ccc(F)cc4)ccc3O[C@@H]2[C@@H](CO)O1	-3	-7	-1.0	i	-1.9
Cc1ccccc1S(=O)(=O)N1CCCCN2[C@H](CO)[C@H](c3ccc(-c4cncnc4)cc3)[C@H]2C1	-3	12	4.7	i	-1.1
CN(C(=O)CSc1nc(N)cc(=O)[nH]1)C1CCCCC1	5	13	0.0	i	-1.8
C[C@H]1CN([C@@H](C)CO)C(=O)c2cc(NC(=O)CCCN(C)C)ccc2O[C@H]1CN(C)S(=O)(=O)c1ccc(F)cc1	4	12	1.0	i	-7.3
C[n+]1c(-c2ccccc2)cc2c(=Cc3ccccc3)c3ccccc3n21	-43	-62	53	i	28*
COc1ccc(C2=Nc3ccccc3NC(=O)C2N(C(=O)c2ccnc3ccccc23)c2ccccc2)cc1 (centres undefined)	-21*	-14*	2.5*	i	2.8
Cc1noc(C)c1NC(=O)Nc1cccc2c1O[C@@H](CN(C)Cc1ccc(C(=O)Nc3ccccc3N)cc1)[C@H](C)CN([C@H](C)CO)C2=O	-10	-2	1.2	i	-5.3
N#C[C@@H]1[C@@H](c2ccccc2C2=CCCCC2)[C@H](CO)N1C(=O)c1ccccn1	-22	-34	-6.8	i	-9.2
C[C@H]1CCCCO[C@@H](CN(C)Cc2ccc(C(=O)O)cc2)[C@@H](C)CN([C@@H](C)CO)C(=O)c2cc(NC(=O)C3CCCCC3)ccc2O1	2	5	-1.7	i	-1.2
Cc1ccc(CN2CC(N3CCN(CCO)CC3)CS2(=O)=O)cc1 (centres undefined)	22	13	1.0	i	0.2
COc1ccc([C@H]2CC(=O)C[C@@H](CCn3cccn3)O2)cc1	9	3	3.3	i	-0.5
O=C1O[C@@H](c2ccccc2)C[C@@H](O)[C@H](O)CCCc2ccccc21	-4	-6	-6.0	i	-0.1
O=C(Nc1ccccc1)N1CCCCN2[C@@H](CO)[C@@H](c3ccc(Br)cc3)[C@@H]2C1	-6	-7	2.5	i	-2.9
O=C(C[C@@H]1C=C[C@@H](NC(=O)Nc2ccc3c(c2)OCO3)[C@H](CO)O1)NCc1ccc(F)cc1	1	-8	0.8	i	0.3
C[C@@H]1CN([C@@H](C)CO)C(=O)Cc2cc(NC(=O)Nc3ccc(C(F)(F)F)cc3)ccc2O[C@@H]1CN(C)C(=O)Nc1ccccc1	-4	-8	2.4	i	1.0
CCc1nc2ccc(C(=O)N3CCN(C(=O)c4ccco4)CC3)cn2c1N(C=O)Cc1ccc(OC)cc1	1	13	-1.2	i	-0.5
COc1ccccc1S(=O)(=O)N[C@H]1CC[C@H](CCn2cc(C3CC3)nn2)O[C@@H]1CO	-2	-3	-2.7	i	1.7
C[C@H]1COc2cccc(N3CCC[C@H]3CO)c2S(=O)(=O)N1	9	12	0.6	i	-0.3
COC(=O)N(C)C[C@@H]1OCc2ccccc2-c2ccccc2C(=O)N([C@H](C)CO)C[C@H]1C	7	14	-2.0	i	-2.5
Cc1ccc(S(=O)(=O)Nc2ccc3c(c2)CC(=O)N([C@H](C)CO)C[C@H](C)[C@H](CN(C)Cc2ccncc2)O3)cc1	3	6	-2.7	i	-0.5
C[C@H](NC(=O)[C@@H]1CCCN1C(=O)[C@@H]1CCCN1)c1ccccc1	0	12	-2.0	i	-3.1

Following part.
SMILES	Ecoli rRNA inh	Ecoli rRNA inh OD600	Ecoli rRNA inh RFP	FGF22 binding	MLL AF4-AF9 inh
O=C1C(=C(c2ccccc2)N2CCOCC2)Cc2ccccc21	-22*	-21*	5.0*	i	16
CC(=O)N(C)C[C@@H]1Oc2ncc(C#Cc3ccccc3F)cc2C(=O)N([C@H](C)CO)C[C@@H]1C	5	8	3.2	i	-1.1
COc1ccc(-c2cn(CC[C@H]3CC[C@H](NC(=O)c4cnccn4)[C@@H](CO)O3)nn2)cc1	-3	-5	-2.0	i	-1.4
C[C@@H](O)C#Cc1ccc([C@H]2[C@@H](CO)N3CCCCN(C(=O)c4ccc(F)cc4)C[C@@H]23)cc1	10	18	-1.3	i	-4.8
O=C(C[C@H]1CC[C@H]2[C@@H](COC[C@H](O)CN2C(=O)Nc2ccc(F)cc2)O1)NCCc1ccncc1	3	15	-0.1	i	0.3
C[C@H]1CN([C@@H](C)CO)C(=O)c2ccccc2-c2ccccc2CO[C@H]1CN(C)S(=O)(=O)c1ccc(C#N)cc1	-2	-1	1.7	i	-1.9
CO[C@@H]1CC[C@H]2CCN(C)C(=O)C[C@@H](c3ccccc3)CN(C)C(=O)c3cc(C#N)ccc3OC[C@H]1O2	-3	-6	-1.0	i	-0.7
O=C(NCC[C@H]1CC[C@H](NS(=O)(=O)c2cccc(F)c2)[C@H](CO)O1)C1CCC1	0	9	-0.9	i	-3.2
CCCN(C)C[C@@H]1Oc2ncc(-c3cccc(C#N)c3)cc2C(=O)N([C@H](C)CO)C[C@H]1C	0	12	-4.2	i	0.6
O=C(NCc1ccc(F)cc1)N1[C@H]2CC[C@@H]1C=C(c1ccc(F)cc1OCc1ccccc1)C2	9	13	-2.7	i	1.4
COc1ccc(S(=O)(=O)N(C)C[C@H]2OCCCC[C@@H](C)Oc3ccc(NC(=O)Nc4ccc(F)cc4)cc3C(=O)N([C@@H](C)CO)C[C@H]2C)cc1	0	10	2.3	i	-0.3
COc1ccc(NC(=O)Nc2ccc3c(c2)CC(=O)N([C@H](C)CO)C[C@@H](C)[C@H](CN(C)S(=O)(=O)c2cccs2)O3)cc1	-1	2	1.3	i	-4.0
Cc1noc(C)c1S(=O)(=O)Nc1ccc2c(c1)C(=O)N([C@H](C)CO)C[C@@H](C)[C@H](CN(C)C(=O)Cc1ccccc1)OCCCC[C@@H](C)O2	-2	-2	5.7	i	3.4
O=C(C[C@@H]1C=C[C@@H](NC(=O)Nc2cc(F)ccc2F)[C@@H](CO)O1)Nc1ccccc1	3	-2	-0.6	i	-1.6
COc1ccc(S(=O)(=O)Nc2ccc3c(c2)C(=O)N([C@@H](C)CO)C[C@H](C)[C@H](CN(C)Cc2ccc4c(c2)OCO4)OCCCC[C@@H](C)O3)cc1	8	-11	8.0	i	4.2
COc1ccc(C=C2OC(=O)C(C(C)=O)=C2O)cc1	29	-13	9.0	i	-0.4
O=C(CC1CC1)N1CC(=O)N2[C@H](C1)[C@@H](c1ccc(-c3cccnc3)cc1)[C@@H]2CO	1	14	-9.5	i	-2.3
COc1ccc(S(=O)(=O)Nc2ccc3c(c2)C(=O)N([C@H](C)CO)C[C@@H](C)[C@H](CN(C)Cc2ccc4c(c2)OCO4)O3)cc1	-2	-2	-0.3	i	2.7
Cc1ccc(C=O)c([B-](F)(F)F)c1	7	7	-2.7	i	-1.0
